Assay outcomes (PubChem BioAssay)
FGF22 binding = binders of human FGF22 protein, primary screen, FGF22 synaptogenesis inhibitor project, biophysical, thermal shift, single point. recombinant FGF22 thermal shift, SYPRO orange fluorescence; percent of sucrose octasulfate shift, DMSO zero. calls only at 9.99 µM. hit rate 1.5% among 340,000. AID 651658, 2012;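 active means melting point raised past a set limit in the mean and every replicate; inconclusive means no clear call; three in four hits are not shown here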
Target sequence (Q9HCT0 whole entry, looked up): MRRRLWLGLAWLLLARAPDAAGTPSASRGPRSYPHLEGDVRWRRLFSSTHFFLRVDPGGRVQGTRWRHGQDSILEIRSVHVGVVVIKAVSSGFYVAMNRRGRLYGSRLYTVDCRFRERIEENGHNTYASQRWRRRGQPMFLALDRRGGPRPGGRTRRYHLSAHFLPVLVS
Beta apoptosis = inhibitors of cytokine-induced beta cell apoptosis, primary screen, luminescence. INS-1E cytokine-induced death, ATP luminescence, 48 h; percent of positive-control rescue, neutral wells zero. protection from apoptosis, % (test concentration not listed). hit rate 0.8% among 300,000. AID 435005, 2010;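 active means all replicates at 75% or more, or half of them and the mean; inconclusive means half reach 75% but not the mean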;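 further: 0% = cytokine-treated negative control wells and 100% = positive control rescue; higher means more ATP so stronger rescue from cytokine killing; wells of about 40 µL received 100 nL stock; the first replicate is given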
RanGTP-Impb inh = inhibitors of RanGTP-importin-beta interaction, primary screen, biochemical, FRET, CFP-Ran, YFP-importin-beta, homogeneous. Ran GTPase (GTP-bound) - importin-beta complex. cell-free CFP-Ran/YFP-importin-beta FRET ratio. inhibition, % (concentration not given with the values). hit rate 1.1% among 300,000. AID 2216, 2009;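 active means most replicates above 15%; inconclusive means exactly half above 15%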;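 further: 0% = DMSO wells and 100% = Ran loaded with GDP instead of GTP; wells of about 40 µL received 100 nL stock; the first replicate is given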
rRNA inh HTS = reduced GFP signal of wild-type E. coli, primary screen, bacterial rRNA inhibitor project, GFP/RFP fluorescence, OD600, single point | E. coli WT GFP vs humanized-ribosome RFP mutants, 24 h; active compounds read low; DMSO median 0, no signal -100 | GFP signal change (wild-type ribosome), % (concentration not given with the values) | hit rate 1.6% among 350,000 | AID 720706, 2013;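 active means significant combined selectivity score with lowered wild-type GFP, culture density cut under 30%, mutant RFP and density less affected; inactive means any of these conditions unmet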; further: one replicate is shown; some compounds called inactive have numbers as strong as hits
MLL AF4-AF9 inh = inhibitors of AF4 peptide binding to AF9, primary screen, biochemical, AlphaScreen, biotin-AF4 peptide, FLAG-AF9, single point. Protein AF-9 (Homo sapiens), P42568. inhibition, % at 10 µM. hit rate 0.47% among 350,000;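 active means every replicate reaching a set inhibition limit, whatever the replicate mean, cut at about 25% in these data; inconclusive means mean inhibition reaches that limit but some replicates miss it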;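 further: 0% = plate neutral control median and 100% = total signal loss; the record names both 10 and 1 µM as test concentration; the first replicate is given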
Target sequence (P42568 whole entry, looked up): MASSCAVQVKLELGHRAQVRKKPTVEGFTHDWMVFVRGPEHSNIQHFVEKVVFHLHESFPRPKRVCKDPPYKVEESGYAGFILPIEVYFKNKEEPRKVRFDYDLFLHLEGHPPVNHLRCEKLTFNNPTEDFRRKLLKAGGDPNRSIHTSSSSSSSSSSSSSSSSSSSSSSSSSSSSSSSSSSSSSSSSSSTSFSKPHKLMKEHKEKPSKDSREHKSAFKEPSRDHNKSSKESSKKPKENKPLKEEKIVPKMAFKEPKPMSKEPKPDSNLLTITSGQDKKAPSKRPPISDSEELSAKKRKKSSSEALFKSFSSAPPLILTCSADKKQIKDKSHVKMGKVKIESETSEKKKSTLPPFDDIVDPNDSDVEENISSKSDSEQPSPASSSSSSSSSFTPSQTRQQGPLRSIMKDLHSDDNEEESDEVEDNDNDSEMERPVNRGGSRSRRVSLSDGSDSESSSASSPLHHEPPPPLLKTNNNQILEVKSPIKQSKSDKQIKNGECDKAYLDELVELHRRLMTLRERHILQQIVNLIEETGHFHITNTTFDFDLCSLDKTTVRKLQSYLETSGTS
ALR inh = inhibitors of human ALR sulfhydryl oxidase, primary screen, biochemical, H2O2 detection, HRP-luminol luminescence, single point | inhibition, % (concentration not given with the values) | AID 485317, 2010 | FAD-linked sulfhydryl oxidase ALR (Homo sapiens), P55789 | purified ALR, DTT oxidation | hit rate 3.8% among 290,000;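 active means mean and each replicate at 75% or more; inconclusive means only one of the two met; inactive means neither met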;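 further: stock transfer was 7.5 nL into about 7.5 µL; 0% = neutral wells and 100% = wells with inactivated enzyme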
Target sequence (P55789 whole entry, looked up): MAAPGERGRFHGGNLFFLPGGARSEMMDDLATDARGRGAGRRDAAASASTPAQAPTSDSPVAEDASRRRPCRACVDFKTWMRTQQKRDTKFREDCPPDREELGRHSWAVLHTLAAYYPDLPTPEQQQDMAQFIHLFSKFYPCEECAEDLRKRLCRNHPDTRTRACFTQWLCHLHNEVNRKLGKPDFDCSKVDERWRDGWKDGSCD
Calb FLC = C. albicans growth inhibition with fluconazole, primary screen, CaCi-2 strain, Alamar Blue fluorescence | growth inhibition, % (test concentration not listed) | C. albicans CaCi-2 (fluconazole-resistant clinical isolate) + fluconazole, 48 h | hit rate 0.57% among 300,000;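 active means most replicates above 75%; inconclusive means exactly half above 75%; inactive means most below 75%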;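 further: all wells also contain fluconazole at 8 µg/ml as a sub-toxic cotreatment; 0% = median of DMSO wells and 100% = median of geldanamycin control wells; wells of about 8 µL received 7.5 nL stock; the first replicate is given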
T cruzi repl = inhibitors of intracellular T. cruzi growth, primary screen, luminescence, NIH3T3 host cells | T. cruzi beta-gal in NIH3T3, 90 h | inhibition, % (test concentration not listed) | hit rate 1.4% among 300,000 | AID 1885, 2009;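 active means mean inhibition across valid replicates above about 55%, limit read from the data; inconclusive means mean below that limit but half or more replicates reach it; inactive means mean below it, under half of replicates reach it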;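 further: signal also drops with host cell toxicity which is not excluded here; 0% = plate median of DMSO wells and 100% = zero luminescence signal; higher percent means less beta-gal luminescence so fewer parasites; stock transfer was 50 nL into about 50 µL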
rRNA inh HTS OD600 = also measured in rRNA inh HTS; calls as there; OD600 change, %; measured here: OD600 growth;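 optical density of the mix in the first replicate; 0 = DMSO median and -100 = no signal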
rRNA inh HTS RFP = also measured in rRNA inh HTS; calls as there; RFP signal change, %; measured here: RFP humanized mutant strains;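 first replicate; 0 = DMSO median and -100 = no signal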
Starred values were filed as active, the others as inactive; i = inactive; ? = inconclusive; / = no result given. Some of the compounds tested; rates above refer to the full screens.

SMILES	FGF22 binding	Beta apoptosis	RanGTP-Impb inh	rRNA inh HTS	rRNA inh HTS OD600	rRNA inh HTS RFP	MLL AF4-AF9 inh	ALR inh	Calb FLC	T cruzi repl
COc1ccc(N2CCN(C(CNC(=O)C(=O)NCc3cccs3)c3ccco3)CC2)cc1 (stereo not drawn)	i	4	5.0	15	9	4.0	-0.5	36	2	0
COc1ccc(C2CC(c3ccc(C)cc3)=NN2C(=O)CCC(=O)O)cc1OC (stereo not drawn)	/	1	?	7	9	8.3	-2.8	-2	-7	-3
CC(C)CNC(=O)c1cc(S(=O)(=O)N2CCOCC2)ccc1N1CCCC1	i	-4	-0.9	9	5	-1.3	0.1	4	-5	-1
COc1ccc(C(CNC(=O)c2ccc(NS(=O)(=O)c3ccc4c(c3)OCCO4)cc2)N(C)C)cc1 (stereo not drawn)	/	/	0.6	-16	-10	8.2	5.0	/	0	-12
COc1cc(OC)cc(C(=O)NC2CCCCCCC2)c1	i	4	2.9	-3	2	1.7	-11	4	0	19
COc1ccc(CCNC(=O)CSc2nc3c(c(=O)n(C)c(=O)n3C)n2C(C)C)cc1OC	i	-5	0.3	9	4	-2.8	6.0	-5	1	-3
c1cc2nnnn2nc1N1CCCCCC1	/	-5	5.1	/	/	/	/	-3	-2	-3
O=C(CSC1=NCCS1)NC(NC(=O)CSC1=NCCS1)c1ccccc1	i	/	0.6	15	12	3.6	-0.6	3	-13	16
O=C(/C=C/c1ccc2c(c1)OCO2)c1ccccn1	i	0	41*	28	14	9.5	2.6	4	2	-14
CCn1c(=O)c(C(=O)Nc2nc3ccccc3[nH]2)c(O)c2ccccc21	/	118*	3.0	/	/	/	/	-6	-7	-4
Cc1ccc(-c2nc(-c3ccccn3)no2)cc1Cl	/	22	2.6	/	/	/	/	4	-3	-4
O=C(c1cccs1)N(Cc1cc2ccccc2[nH]c1=O)c1ccccc1	/	7	6.5	/	/	/	/	1	?	-10
CC(Cc1ccco1)NC(=O)c1cccc(S(=O)(=O)N(C)C)c1 (stereo not drawn)	i	-1	-3.1	6	-1	-1.0	0.0	/	-7	-2
CCOc1ccc(NC(=S)NNC(=O)c2ccc(Br)cc2)cc1	i	5	8.7	-15*	4.5*	1.0*	0.4	55	74	0
CCOCCCNC(=O)C1CCN(Cc2cccc(OCc3ccccc3)c2)CC1	i	0	-0.2	6	8	-1.7	-2.7	-9	-13	12
CCn1cc(C(=O)N[C@@H](CCSC)C(=O)NCCCn2ccnc2)c(=O)c2cc3c(cc21)OCO3	i	/	2.2	2	8	-1.2	-5.6	0	4	-17
COc1ccc(-n2nc(C(=O)NCC(=O)N3CCN(c4ccccc4F)CC3)c3ccccc3c2=O)cc1OC	i	4	-0.5	0	10	0.8	10	17	28	10
CS(=O)(=O)Nc1ccc(C2=NN(S(C)(=O)=O)C(c3cccs3)C2)cc1 (stereo not drawn)	i	2	-0.5	10	0	2.9	-3.9	-3	22	14
CN(C)CC(=O)c1ccc(-c2ccccc2)cc1	/	-6	-2.6	/	/	/	/	62	-1	-12
Cc1n[nH]c(=O)nc1N1CCc2ccccc2C1	/	-1	-3.8	/	/	/	/	-3	-11	1
O=C(Cn1c(=O)oc2ccccc21)Nc1ccc(F)cc1	i	/	1.4	12	13	2.9	-4.4	3	0	-9
COc1ccccc1S(=O)Cc1ccc(C(=O)NCc2ccccc2Cl)o1 (stereo not drawn)	i	/	-1.9	-8	-13	-0.9	6.1	62	3	3
N#Cc1ccc(C(=O)N/N=C/c2cn(CC(=O)O)c3ccccc23)c(F)c1	i	-4	2.9	5	10	5.0	-0.9	-6	-11	-13
Cc1occc1-c1nnc(SCC(=O)Nc2ccccc2)n1C	i	0	-0.8	21	8	2.9	-19	-3	-24	-14
COc1cc(OC)cc(C(=O)Nc2cccc3cccnc23)c1	/	16	1.4	3	3	-1.8	-3.0	-4	1	1
Cc1cc2nc(-c3cccc(NC(=O)c4ccc(Br)o4)c3)oc2cc1C	/	-7	6.8	18	17	-1.1	/	5	3	-1
COC(=O)c1sc(N2C(=O)c3oc4ccccc4c(=O)c3C2c2cccc(O)c2)nc1C (stereo not drawn)	i	-3	4.5	1	6	13	-23	/	-2	-13
CN(C(=O)COC(=O)c1ccc([N+](=O)[O-])cc1N)c1ccccc1	i	2	-5.9	24	9	0.1	0.1	-8	4	12
O=C(Cc1c(F)cccc1Cl)N1CCN(S(=O)(=O)c2cccs2)CC1	i	1	/	3	7	-2.9	-0.6	/	/	/
C=CCN1C(=O)/C(=C/c2ccc(O)c(OC)c2)S/C1=N/c1nccs1	/	3	-14	/	/	/	/	25	-5	2
COc1ccc(CC(=O)N/N=C(/C)CC(=O)N(C)c2ccccc2)cc1	i	1	-1.2	10	7	-2.9	-3.4	-2	-23	8
CC(C)CC(=O)c1c[nH]c(C(=O)NCc2ccccc2)c1	i	3	?	0	5	-1.4	-0.9	24	1	3
CC1CCCCN1S(=O)(=O)c1ccc2c(c1)oc(=O)n2CC(=O)O (stereo not drawn)	/	-3	4.3	/	/	/	/	/	-1	-18
COc1ccc(C(=S)NC2CCCCC2)cc1	/	2	2.7	/	/	/	/	21	-16	-23
COc1ccc(CN(C)CC(=O)NC2CCCc3ccccc32)cc1OC (stereo not drawn)	i	-7	-6.6	4	-1	-0.2	0.2	-14	-3	-2
C/C(CC(=O)Nc1ccccn1)=N\NC(=O)C(=O)Nc1cccc(Cl)c1C	/	-4	-0.2	/	/	/	/	-12	7	0
Cn1c(=O)c2cc(S(=O)(=O)NCCC(=O)Nc3ccccc3F)ccc2n(C)c1=O	/	3	0.6	/	/	/	/	-4	2	-10
CC(C)CSc1nsc(N)n1	i	4	0.7	13	8	0.2	-15	-7	10	-4
CCCN1CCN(S(=O)(=O)c2ccc3c(c2)CC(C)N3C(=O)C2CC2)CC1 (stereo not drawn)	i	-5	2.5	-5	-3	9.9	-9.3	-2	-2	20
Cc1cccc(C)c1OCC(O)Cn1nnc2ccccc21 (stereo not drawn)	/	4	2.4	/	/	/	/	0	20	-6
COC(=O)[C@H](C)NC(=O)/C=C/c1ccc(OC)cc1	/	-8	-0.3	/	/	/	/	-4	-2	-5
O=C1OCCN1/N=C/c1ccc([N+](=O)[O-])o1	i	/	3.5	-54	-77	-11	-5.9	-16	22	50
CCC(C)c1ccc(O)c(NC(=O)c2ncn[nH]2)c1 (stereo not drawn)	/	/	-2.7	/	/	/	/	?	22	6
COCCn1c(SCC#N)nnc1-c1ccc2c(c1)OCO2	/	-6	0.4	/	/	/	/	-8	2	6
O=C(c1cc([N+](=O)[O-])ccc1N1CCCC1)N1CCCCC1	i	-7	1.6	18	2	1.9	0.9	14	-2	1
O=C(CSc1nnc(-c2cccnc2)n1-c1ccccc1)Nc1ccccn1	/	-6	?	/	/	/	/	-6	/	0
Cc1cc([N+](=O)[O-])nn1Cc1ccc(C(=O)N/N=C/c2ccc(O)cc2O)cc1	/	98*	0.4	/	/	/	/	14	20	-7
O=C(O)CCNc1nc(C(F)(F)F)nc2ccccc12	i	-7	-0.1	-1	3	-1.5	-1.4	/	-12	-2
O=C(NCc1ccco1)C1CC(=O)N(c2ccc(O)cc2)C1 (stereo not drawn)	/	-9	-1.8	/	/	/	/	99*	-15	/
O=C(NCc1ccccc1)N1CCN(c2ccccc2)CC1	i	0	-5.0	10	6	-1.8	-1.3	/	-1	0
COc1cccc(CNc2ccc3[nH]c(=O)[nH]c3c2)c1OCc1ccccc1	/	4	7.8	/	/	/	/	99*	-6	-6
Cc1ccc(C)c(S(=O)(=O)N2CCN(C(=O)c3cncc(Br)c3)CC2)c1	i	-6	2.8	-4	-11	-0.8	-12	/	-3	-6
CC(C)C[C@@]12C(=O)N(c3cccc(F)c3)C(=O)N1[C@H](c1ccc(Cl)cc1)[C@@H]1C(=O)N(C3CCCCC3)C(=O)[C@@H]12	i	11	-3.1	10	12	3.7	-9.8	16	-5	18
COC(=O)C1CSC(c2ccc(Cl)cc2)N1C(=O)c1ccccc1 (stereo not drawn)	i	-4	0.6	-24	-34	-4.3	-1.7	0	-4	0
Cn1c(=O)c2c(nc(SCCCO)n2Cc2ccccc2Cl)n(C)c1=O	/	6	3.1	/	/	/	/	4	2	6
CC(=O)c1cc2c(cc1NC(=O)C1CC1)OCO2	/	5	1.3	/	/	/	/	-5	17	-13
OC(CN1CCOCC1)CN1CCOCC1	/	3	10	/	/	/	/	-1	-1	-15
CC1(C)Oc2ccc3ccc(=O)oc3c2-c2cnoc21	i	-1	-1.4	3	3	2.8	-3.6	29	6	-10
COc1cccc(NC(=O)CN2C(=O)NC(Cc3c[nH]c4ccccc34)C2=O)c1 (stereo not drawn)	i	-4	/	-7	0	5.5	2.3	/	/	/
CCC(C)C(Nc1ccc(C(=O)OC)cc1[N+](=O)[O-])C(=O)OC (stereo not drawn)	/	/	-0.9	/	/	/	/	-4	0	2

The last 2 records of the part above open the next one.
SMILES	FGF22 binding	Beta apoptosis	RanGTP-Impb inh	rRNA inh HTS	rRNA inh HTS OD600	rRNA inh HTS RFP	MLL AF4-AF9 inh	ALR inh	Calb FLC	T cruzi repl
COc1cccc(NC(=O)CN2C(=O)NC(Cc3c[nH]c4ccccc34)C2=O)c1 (stereo not drawn)	i	-4	/	-7	0	5.5	2.3	/	/	/
CCC(C)C(Nc1ccc(C(=O)OC)cc1[N+](=O)[O-])C(=O)OC (stereo not drawn)	/	/	-0.9	/	/	/	/	-4	0	2
Cc1cccc(NS(=O)(=O)c2cc(C(=O)NCCC3=CCCCC3)ccc2Cl)c1	i	13	-0.4	-16	-22	8.6	2.7	-1	1	26
CCN(CC)CCN(C)C(=O)c1ccc(OC2CCN(C(=O)C3CC3)CC2)cc1	i	-8	-4.2	5	-3	1.5	-0.1	-6	-12	-3
O=C1NC(=O)C(c2ccc(Cl)cc2)N1 (stereo not drawn)	i	-1	0.1	4	13	-4.4	-0.7	-1	-5	-2
CC(=O)NC(Cc1cc(C)ccc1C)C(=O)N1CCN(C(=O)c2ccc(Br)cc2)CC1 (stereo not drawn)	i	0	0.9	9	4	-0.9	-4.3	-5	-15	-17
COc1ccccc1CNC(=O)c1cc(C)nn1-c1ccccc1	i	-1	1.3	4	1	-5.8	-5.7	-1	-3	-12
O=Cc1cc(N=Nc2ccc(S(=O)(=O)O)cc2)ccc1O	i	-7	-3.1	-20*	-5.8*	-1.0*	-5.0	-13	-6	13
COC(=O)Cc1ccc(NC(=S)NCCC(C)C)cc1	i	-1	-1.3	1	-6	1.7	-0.7	/	-2	24
COc1cccc(-c2csc(N3CCN(C(=S)Nc4cccc(C)c4)CC3)n2)c1	i	-2	2.6	-10	-10	33	4.1	-5	-7	-5
